Assay outcomes from PubChem BioAssay.
VACV Venus inh = inhibitors of vaccinia virus (Venus reporter); 330,000 tested, 0.46% active; Vaccinia virus Venus reporter expression, fluorescence; Potency, µM (doses to about 36.5 µM), for the others: at the top dose activity change, negative = inhibition, most hits filed as inhibitors; active means well fitted inhibition curve with a large enough effect; inconclusive means small, poorly fitted or top-dose-only effect; inactive means no such curve, though single readings can be large or run the other way; tested in A549 cells; further: nearly all actives have a fitted effect of over 30% in size; inactives centre near -10
VACV mCherry inh = vaccinia inhibition (mCherry reporter) | Vaccinia virus mCherry reporter infection, fluorescence; about a quarter of the inactives have no number | Potency, µM (highest dose often 36.5 µM), for inactives: top-dose activity change, negative = inhibition, actives largely listed as inhibitors | 310,000 tested, 0.63% active; active = well fitted inhibition curve with a large enough effect; inconclusive = small, poorly fitted or top-dose-only effect; inactive = no such curve, though single readings can be large or run the other way; tested in A549 cells; further: nearly all actives have a fitted effect of over 35% in size; inactives centre near -10
Numbers without * were called inactive; i = inactive; ? = inconclusive; . = not tested or not shown; & = joins results of further samples; [ ] = remark or other dose. On the % scale 0 is the no-effect control and ±100 the full control effect; potency means the concentration at half of the fitted maximal effect.

Values run as follows: VACV Venus inh | VACV mCherry inh
CCCC(=N)C1=C(O)CC(CC(C)SCC)CC1=O (stereo unspecified)
 : -35% | .
C[C@@H]1CN([C@H](C)CO)C(=O)CCCn2nncc2CO[C@@H]1CN(C)C(=O)c1ccccc1
 : -6% | -2%
O=[N+]([O-])c1cc(-c2ncccn2)cs1
 : -3% | -10%
O=C(Nc1c[nH]c(=O)[nH]c1=O)c1ccccc1Cl
 : -4% | i
Fc1ccc(N2CCN(/C=C/c3nnnn3-c3ccccc3)CC2)cc1
 : -4% | -6%
CC(=O)Nc1ccc(S(=O)(=O)Nc2cc3c(cc2C(C)=O)OCO3)cc1
 : -8% | i
COc1ccc(Cl)cc1NS(=O)(=O)c1ccc2[nH]c3c(c2c1)CCCC3
 : ? | ?
COCCCNC(=S)Nc1ccc(S(=O)(=O)Nc2cc(OC)nc(OC)n2)cc1
 : -12% | i
COc1ccc(-n2c(SCC(=O)Nc3ccc(C)cc3)nc(O)c(Cc3ccccc3)c2=O)cc1
 : -16% | -10%
Cc1ccc(NC(=O)N2CCCC2C(=O)NCCc2ccccc2)cc1 (stereo unspecified)
 : -8% | -10%
O=C(Nc1ccc(N2CCOCC2)cc1)c1cccc(S(=O)(=O)N2CCCCC2)c1
 : -15% | -21%
Nc1sc(Cc2ccccc2)cc1C(=O)NC1CCCCC1
 : -4% | ?
CCCCN(C(=O)c1ccc2c(c1)OCO2)C1CCS(=O)(=O)C1 (stereo unspecified)
 : -3% | -1%
COC(=O)c1cnn2c(C)c(Cc3cccc(F)c3)c(C)nc12
 : -7% | 4%
CCOc1ccc(NC(=O)NC2CCCCCCC2)cc1
 : -24% | -3%
CCCCc1nc2sc3c(SCCN(C)C)ncnc3c2c2c1CCC2
 : -14% | -22%
O=C(NC1CCN(Cc2ccccc2)CC1)c1ccc(CS(=O)c2ccccc2Cl)o1 (stereo unspecified)
 : -20% | ?
C/[N+]([O-])=C\c1cccc(OCCN2CCN(c3ncc(C(F)(F)F)cc3Cl)CC2)c1
 : -7% | -14%
COCCn1c(C)cc(C(=O)COC(=O)c2ccc(S(=O)(=O)N(C)C)cc2)c1C
 : -8% | -17%
Cn1cnnc1SCCNS(=O)(=O)c1cccc([N+](=O)[O-])c1
 : -14% | -15%
COC(=O)c1ccc(CSc2nc3ccncc3n2Cc2ccc(F)cc2)cc1
 : -9% | -9%
CCCCC1(C)OC(=O)C(=Cc2ccc(N(C)C)cc2)C(=O)O1 (stereo unspecified)
 : -12% | .
CCC(=O)Nc1cccc(NC(=S)NC(=O)c2ccc(Cl)cc2Cl)c1
 : ? | ?
CCOc1cc(/C=N/NC(N)=O)cc(Br)c1OCC(=O)Nc1ccccc1C
 : -10% | -22%
COC(=O)CCCCC(=O)C1C(=O)CC(C)(C)C(C(=O)OC)C1=O (stereo unspecified)
 : 6% | .
CN(C)C(=O)N1CCN(C(=O)c2ccccc2Sc2ccccc2C#N)CC1
 : -17% | -14%
O=c1/c(=C/c2ccc(CNS(=O)(=O)c3ccccc3)o2)sc2n1CCN=2
 : -12% | -19%
OCCC#Cc1ccc(CN2CCN(Cc3ccsc3)C(CCO)C2)cc1 (stereo unspecified)
 : -9% | -6%
COc1cccc(OC)c1C(=O)OCC(=O)N1CC(C)CC(C)C1 (stereo unspecified)
 : -16% | -8%
COc1cc(OC)nc(Nc2nc(C(N)c3ccccc3)cs2)n1 (stereo unspecified)
 : -22% | -23%
S=C(Nc1ccccc1Cl)NC1CCC(NC(=S)Nc2ccccc2Cl)CC1 (stereo unspecified)
 : -9% | -22%
COc1cccc(CC(=O)OCC(=O)Nc2c(C)nn(-c3ccccc3)c2C)c1
 : -11% | -8%
COc1ccc(NC(=O)CSc2nccn2Cc2ccccc2)cc1
 : -10% | i
Cc1ccc(C)c(-n2cc(-c3ccccc3)nc2SCC(=O)Nc2ccccc2)c1
 : -11% | -8%
Cc1cc(C)n2nc(SC(C)C(=O)N3CC(C)OC(C)C3)nc2n1 (stereo unspecified)
 : -10% | -13%
CCCn1c(SCC(=O)N2CCCC2=O)nc2ccccc2c1=O
 : -6% | i
Cc1ccc(C(CNS(=O)(=O)c2ccccc2)N2CCN(C)CC2)cc1 (stereo unspecified)
 : -25% | -21%
Cc1ccc(-c2ccc(/C=N/N3C(=O)C4C5C=CC(C6CC56)C4C3=O)o2)c([N+](=O)[O-])c1 (stereo unspecified)
 : -26% | -4%
Cc1ccnn1CC(=O)N/N=C/c1cn[nH]c1-c1ccccc1
 : -17% | ?
COC(=O)CCC(=O)OC1(C)C(=O)C2=CN(c3ccc(OC)cc3)C(c3ccc(OC)cc3)=CC2=C(Br)C1=O (stereo unspecified)
 : 4% | i
Cc1ccc(NC(=O)CN2CC(C)SC2=NC2CCCCC2)cc1 (stereo unspecified)
 : -1%&-25% | -17%
CCCNC(=O)c1cc(C2CCCCN2C(=O)c2ccc(OC)cc2)on1 (stereo unspecified)
 : -12% | -12%
CCOc1ccc(NC(=O)CCNS(=O)(=O)c2cccs2)cc1
 : 9%&-2% | -5%&-16%
CC1NC(=O)NC1CCCCCC(=O)Nc1ccc(F)cc1 (stereo unspecified)
 : -16% | -2%
O=S1(=O)N[C@@H](Cc2ccccc2)COc2cc(N3CCC[C@H]3CO)ccc21
 : -21% | -13%
CN(C)CCNC(=O)c1c(O)c2c([nH]c1=O)CCCC2
 : 0% | -8%
CCCN(CCC)Cc1cc(=O)oc2cc(C)c(C)cc12
 : 0% | 35%[activator]
COCCOc1nc2c(c(=O)n(C)c(=O)n2C)n1CCc1ccccc1
 : -7% | -8%
OCCNc1nc(Nc2ccccc2)nc(Nc2ccccc2)n1
 : ? | .
O=C(Cn1nnc(-c2ccccc2)n1)N/N=C/c1ccc(-c2ccc(Cl)cc2)o1
 : -5% | -12%
CN(CCc1ccccc1)C(=O)c1[nH]c(C(F)(F)F)nc1-c1ccccc1
 : 3% | i
COc1ccc(-c2csc3ncn(-c4ccc(C)cc4)c(=O)c23)cc1OC
 : -24% | ?
COc1ccc2c(c1)CCC(C)N2S(=O)(=O)c1ccc(C2CNC(=O)C2)cc1 (stereo unspecified)
 : -15% | -1%
Cc1ccnc(SCc2cn3c(C)cccc3n2)n1
 : -3% | i
CCCN(CCC)C(=O)Cn1c(=O)n(-c2ccc(C)cc2)c(=O)c2ccc(C(=O)NCc3ccccc3Cl)cc21
 : -20% | -23%
O=C(NCC1COc2ccccc2O1)c1c[nH]c2ccc(S(=O)(=O)N3CCOCC3)cc2c1=O (stereo unspecified)
 : -30% | .
COc1ccc2cc(/C=N/NC(=O)c3c(Cl)cnn3C)c(Cl)nc2c1
 : 3% | i
S=c1[nH]c2ccccc2n1CCc1ccncc1
 : -26% | ?
NC(=S)NN=C1c2cc(Cl)ccc2-c2c1cc(Cl)cc2[N+](=O)[O-]
 : -17% | -16%
C=CCOc1ccc(/C=N/O)cc1Cl
 : -6% | -11%

(cont.)
SMILES	VACV Venus inh	VACV mCherry inh
CCOC(=O)COc1ccc(S(=O)(=O)NC2CC2)cc1	-7%	-15%
COc1ccc(NC(=O)/C=C/c2ccc(C)o2)cc1S(=O)(=O)N1CCOCC1	-3%	i
O=C(O)CCCC(=O)N1CCN(c2cccc(Cl)c2)CC1	-12%	.
Cc1cccc(CC(c2cccc(C)c2)N(C)C)c1 (stereo unspecified)	-4%	i
Cc1ccc(NNC(=O)c2cc(C(C)(C)C)nn2Cc2ccccc2)cc1	-29%	?
CN(C)c1ccc(-c2ccnc3c2CC(C)(C(=O)NCC2CCOCC2)O3)cc1 (stereo unspecified)	-4%	18%
CCc1nc2ccc(C(=O)NCc3ccc(C)o3)cc2nc1CC	-13%	i
COC(=O)c1sccc1NC(=O)CSCCc1ccccn1	3%	i

Part of the list above, field by field:
smiles: Cc1ccnn1CC(=O)N/N=C/c1cn[nH]c1-c1ccccc1
  VACV Venus inh: -17%
  VACV mCherry inh: ?
smiles: COC(=O)CCC(=O)OC1(C)C(=O)C2=CN(c3ccc(OC)cc3)C(c3ccc(OC)cc3)=CC2=C(Br)C1=O (stereo unspecified)
  VACV Venus inh: 4%
  VACV mCherry inh: i
smiles: Cc1ccc(NC(=O)CN2CC(C)SC2=NC2CCCCC2)cc1 (stereo unspecified)
  VACV Venus inh: -1%&-25%
  VACV mCherry inh: -17%

(more compounds)
SMILES	VACV Venus inh	VACV mCherry inh
COc1ccc(C2CC(c3ccccc3)=NN2C(=O)COC(=O)c2nc3nc(C)cc(C)n3n2)cc1 (stereo unspecified)	1%	3%
O=C(c1ccc(Cl)c(Cl)c1)N1CCC(=O)N([C@H](COCc2ccccc2)Cc2ccccc2)CC1	-9%	i
CC1CCCCN1C(=O)COC(=O)c1ccc2c(c1)C(=O)N(Cc1ccco1)C2=O (stereo unspecified)	-10%	i
C/C(Cc1ccccc1)=N\NC(=O)CNC(=O)Cc1ccccc1	-6%	-18%
CC(=O)Nc1ccc(C(=O)OCC(=O)N2CCCC2)cc1	5%	23%
COc1cc(CCC(=O)OCC(=O)Nc2cccc(S(=O)(=O)N(C)C)c2)cc(OC)c1OC	-16%	-16%
Cc1cccc(-n2ncc3c2CCCC3NC(=O)C2(C(N)=O)CC2)c1C (stereo unspecified)	-16%	?
Cc1ccc(S(=O)(=O)c2cn(Cc3ccccc3Cl)c3ccc(F)cc3c2=O)cc1	4%	-2%
CC(=O)N1CCc2cc(CNS(=O)(=O)c3ccc(F)cc3)ccc21	-10%	-12%
COc1ccc2nc(SCC(C)=O)c(C#N)cc2c1	-19%	i
OC(c1ccccc1)(c1ccccc1)C1CCN(CCCOc2cccc(OC(F)(F)F)c2)CC1	?	?
COCCN(C(=O)Cc1cccs1)c1nnc(-c2cccnc2)s1	-4%	-14%
Cc1oc(C(C)(C)C)cc1C(=O)N1CCN(C(c2ccccc2)c2ccccc2)CC1	-3%[7.34 µM]	i[7.34 µM]
O=S(=O)(Cc1ccc(Cl)cc1)N1CCCCCC1	-3%	i
COCCNC(=O)C(c1ccc(C)o1)N(C(=O)c1snc(C(N)=O)c1N)c1ccc(C)cc1 (stereo unspecified)	-18%	-2%
CN(Cc1ccc(Cl)cc1)C(=O)COC(=O)CSc1ccc([N+](=O)[O-])cc1	-16%	-18%

Entries of single compounds, quoted from the list. Order of values: VACV Venus inh, VACV mCherry inh
Shown for COc1ccc2nc(SCC(C)=O)c(C#N)cc2c1 → -19%, i
Shown for Cc1oc(C(C)(C)C)cc1C(=O)N1CCN(C(c2ccccc2)c2ccccc2)CC1 → -3%[7.34 µM], i[7.34 µM]
Shown for O=S(=O)(Cc1ccc(Cl)cc1)N1CCCCCC1 → -3%, i
Shown for COCCNC(=O)C(c1ccc(C)o1)N(C(=O)c1snc(C(N)=O)c1N)c1ccc(C)cc1 (stereo unspecified) → -18%, -2%
Shown for OC(c1ccccc1)(c1ccccc1)C1CCN(CCCOc2cccc(OC(F)(F)F)c2)CC1 → ?, ?

Additional structures:
SMILES	VACV Venus inh	VACV mCherry inh
COc1ccccc1CNC(=O)CCCCn1c(=O)c2ccccc2n(Cc2ccccc2C)c1=O	-24%	-30%
CSCCC(NC(=O)c1occc1C)C(=O)O (stereo unspecified)	-5%	.
CC(=O)c1sc(NC(=O)C2(F)C(F)(F)C(F)(F)C(F)(F)C(F)(F)C2(F)F)nc1C	?	?
CN1CC(=O)N(CC(=O)Nc2ccc(Br)cc2F)C1=O	-11%	-15%
CSc1ccc(CCNC(=O)c2ccc3c(c2)c(C)c(C)n3Cc2ccc(F)cc2)cc1	-12%	-19%
CC(=O)c1ccc(NC(=O)Cn2nc(C)c([N+](=O)[O-])c2C)cc1	-7%	-10%
c1ccc(CNc2nc(N3CCOCC3)nc(N3CCOCC3)n2)cc1	-13%	-15%
Cc1ccc2[nH]c(=O)c3cc(C(=O)N4CCN(C(=O)c5ccco5)CC4)sc3c2c1	-6%	-16%
Cc1ccc(NCc2nnc(SCc3ccc(C#N)cc3)n2Cc2ccco2)c(C)c1	-19%	-23%
COc1ccc(C2/C(=C(/O)c3ccc(C)cc3)C(=O)C(=O)N2c2ccccn2)cc1 (stereo unspecified)	-10%	-10%
Cc1cc(Oc2ccc(C#N)cc2)nc(N2CCOCC2)n1	-7%	-10%
COC(=O)C1=C(c2ccc(F)cc2F)C[C@@H]2CC[C@H]1N2C(=O)N1CCCCC1	-7%	-4%
Cc1cccc(N2C(=O)N3[C@H](c4ccc(F)cc4)[C@@H]4C(=O)N(C5CCCCC5)C(=O)[C@@H]4[C@]3(Cc3ccccc3)C2=O)c1	-27%	-4%
CNC(=O)c1sc2nc(-c3ccc(OC)cc3)cn2c1C	4%	5%
Cc1cc(C)nc(N(C#N)Cc2ccccc2)n1	-9%	-11%
CN(C)CCCNC(=S)NCc1ccc(Cl)cc1	-12%	-10%
Cc1cccc(S(=O)(=O)Nc2nc3ccccc3nc2Nc2ccc3c(c2)OCO3)c1	-1%	-1%
Cc1ccc(NC(=O)CN2C(=O)CSc3ccc(S(=O)(=O)N4CCCC4)cc32)cc1F	-6%	-13%

Some values from the entries so far:
Reading of COC(=O)C1=C(c2ccc(F)cc2F)C[C@@H]2CC[C@H]1N2C(=O)N1CCCCC1 in VACV Venus inh: -7%
Reading of CN(C)CCCNC(=S)NCc1ccc(Cl)cc1 in VACV mCherry inh: -10%
Reading of Cc1cc(C)nc(N(C#N)Cc2ccccc2)n1 in VACV mCherry inh: -11%
Reading of Cc1cccc(S(=O)(=O)Nc2nc3ccccc3nc2Nc2ccc3c(c2)OCO3)c1 in VACV Venus inh: -1%
